Bioassay records from PubChem.
MT1-MMP act inh: MT1-MMP (human) activation inhibition; P50281; HT1080 RFP-PRO-GFP cells, GFP/RFP ratio fluorescence, overnight; percent of plate control window, DMSO zero; GFP/RFP ratio change, % at 20 µM; 0.061% of 360,000 active;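 active = GFP/RFP ratio change of at least 30% with cell ATP level not reduced by more than half and red fluorescence within 50% of control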; also: strong numbers were not always called active
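Assay system – RFP-PRO-GFP reporter HT1080 cells · Compound dosing – single dose of 20 µM compound, 1% DMSO final · Incubation – overnight compound exposure at 37 °C · Measure – GFP/RFP fluorescence ratio · Benchmarks – DMSO wells and RFP-L50D-GFP cells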
Rce1 inh: yeast Ras-converting enzyme inhibition | Q03530 | 0.27% of 290,000 active | yeast membranes, quenched prenylated peptide cleavage fluorescence | calls only;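 active = fall in fluorescence gain of 50% or more versus controls, with final raw signal at or below 3038400; inconclusive = same 50% fall but final raw signal above 3038400; inactive = fall in fluorescence gain under 50%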;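 also: plate controls were neutral control wells for no effect and wells lacking membranes for full effect; tested at 10 µM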
Target sequence (Q03530 whole entry, looked up): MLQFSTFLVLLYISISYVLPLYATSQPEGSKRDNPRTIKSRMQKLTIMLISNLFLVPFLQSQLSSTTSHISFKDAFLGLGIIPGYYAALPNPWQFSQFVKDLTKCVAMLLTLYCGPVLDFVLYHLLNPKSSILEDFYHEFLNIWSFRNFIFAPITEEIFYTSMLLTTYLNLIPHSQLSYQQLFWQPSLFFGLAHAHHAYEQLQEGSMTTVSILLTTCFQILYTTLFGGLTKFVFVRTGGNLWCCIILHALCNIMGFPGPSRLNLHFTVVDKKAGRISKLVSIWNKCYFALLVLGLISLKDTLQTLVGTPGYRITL
UUG fidelity: yeast start codon fidelity modulation. S. cerevisiae UUG-firefly luciferase reporter, luminescence/redox ratio. activity score, % at 18.7 µM. 0.13% of 350,000 active. AID 602363;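 active = replicate mean at a twofold rise or more, about +100% in these data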;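 also: firefly luciferase made from a UUG start codon reports start codon fidelity; reporter light over untreated wells divided by growth signal over untreated wells; some hits fall short of that in this replicate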
CSC inhib: blocks cancer stem cells | cancer stem cell-like cells viability, luminescence | 1.1% of 300,000 active | inhibition, % at 7.5 µM;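 active = mean at 75% or more and at least half the replicates too; inconclusive = mean and replicates disagree; tested in HMLE shEcad cells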;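 also: 0% = median of negative and 100% = median of positive control wells; the first replicate is given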
Env fusion inh: blocks HIV Env-driven cell-cell fusion. HeLa-JRFL Env/CEM21 cell fusion, luciferase. inhibition, % at 12.3 µM. 1.1% of 360,000 active;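 active = mean replicate inhibition score of at least 50 and every replicate individually at or above 50; inconclusive = only one of the two criteria met; inactive = mean below 50 and not all replicates reaching 50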;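 also: 0% = plate neutral controls and 100% = maraviroc near 300 nM; one replicate is shown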
PABP FP inh: blocks human PABP binding to poly(A) RNA; P11940; fluorescence polarization; inhibition, % at 35 µM; 1% of 290,000 active;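 active = 50% or more with normal probe brightness, or confirmed in later tests; inconclusive = above 50% with abnormal brightness, or retests that disagree; inactive = below 50% or failed in later tests; about a fifth of its hits are not listed in these tables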;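 also: calls also rest on retests at 20 µM and on dose response follow-up; controls were probe without protein and protein plus probe with vehicle; some compounds called inactive have numbers as strong as hits; many hits fall short of the cut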
eIF4H FP inh: inhibitors of RNA binding by human eIF4H | inhibition, % at 35 µM | Q15056 | eIF4H fluorescence polarization binding assay | 0.94% of 290,000 active;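 active = 50% or more with normal probe brightness, or confirmed in later tests; inconclusive = above 50% with abnormal brightness, or retests that disagree; inactive = below 50% or failed in later tests; about a fifth of its hits are not listed in these tables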;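 also: calls also rest on retests at 20 µM and on dose response follow-up; 0% = protein and probe with vehicle and 100% = probe without protein; strong numbers were not always called active; many hits fall short of the cut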
eIF4H FP inh retest: second read-out of eIF4H FP inh, no call of its own (marks repeat the call); inhibition, %; compound at 20 µM; confirmation average;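 mean of two retest wells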
PABP FP inh retest: further read-out of PABP FP inh, marked with its call; inhibition, %; compound at 20 µM; confirmation repeats;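 mean of two retest wells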
MT1-MMP act inh RFP: further read-out of MT1-MMP act inh, marked with its call; RFP signal change, %; measured here: RFP expression control read;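 0 = vehicle wells; hits needed this value within 50% of zero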
An asterisk follows results filed as active; i = inactive; ? = inconclusive; nt = not tested or not shown. The list is partial; count on the stated rates, not on these rows.

SMILES | MT1-MMP act inh | MT1-MMP act inh RFP | Rce1 inh | UUG fidelity | CSC inhib | Env fusion inh | PABP FP inh | eIF4H FP inh | others
COc1ccc(CSC(=N)N)cc1[N+](=O)[O-] | 8 | 4 | i | 8 | 15 | nt | 0 | -4
COc1ccc(/C=C2/N=C(SC3CCOC3=O)N(c3cccc(OC)c3)C2=O)cc1 (stereo not drawn) | nt | nt | i | nt | 18 | 3 | 5 | 0
Cc1cccnc1Nc1nc(-c2ccc(O)cc2)cs1 | 4 | 4 | nt | -10 | 32 | nt | 3 | -2
CCOC(=O)c1c(CC(C)C)csc1/N=C/C1C(=O)CC(C)(C)CC1=O | -59 | 9 | i | nt | -3 | -2 | 6 | ?
Cc1ccc(C(=O)NCc2occc2C(=O)O)o1 | 0 | 4 | i | -9 | 4 | -49 | 37 | 86 | eIF4H FP inh retest=2;PABP FP inh retest=4
CC1(c2ccccc2)NC(=O)N(CC(=O)NCC2CCCO2)C1=O (stereo not drawn) | -1 | 1 | nt | -15 | -22 | nt | nt | nt
O=C(CC1S/C(=N/N=C/C=C/c2ccccc2)NC1=O)Nc1ccc(Cl)c(Cl)c1 (stereo not drawn) | 5 | -1 | i | -7 | 8 | nt | -3 | -4
O=C(N/N=C/c1coc2ccccc2c1=O)c1ccncc1 | -8 | -5 | i | 0 | -10 | 3 | -9 | -13
Cc1nc(SCC(=O)O)c(C#N)c(-c2ccco2)c1C(=O)N(C)C | 3 | 1 | i | -11 | -7 | 2 | 6 | -5
COc1cccc(CNC(=O)C2CCN(S(=O)(=O)N3CCC(C)CC3)CC2)c1 | 1 | -3 | i | -19 | 1 | -8 | 12 | -2
O=C(CSc1nncn1-c1ccccc1)Nc1ccc(F)cc1F | 1 | 0 | i | 20 | -12 | 5 | 7 | -17
COc1ccc(N(Cc2ccco2)C(=O)c2ccccc2F)cc1OC | 1 | 2 | i | -11 | 11 | nt | -13 | -7
CCOC(=O)CN1NC2(CCCCCC2)NC1=S | -1 | 4 | i | -11 | -13 | -5 | 4 | 2
COc1ccc(OC)c(S(=O)(=O)Nc2ccc3c(c2)C(=O)OC3)c1 | -5 | -4 | i | -14 | 16 | 19 | -3 | 3
COC(=O)c1c(C)oc2ccc(N(C(C)=O)S(=O)(=O)c3ccccc3)cc12 | 5 | -14 | i | -6 | nt | 2 | -1 | 17
CCOc1ccc(S(=O)(=O)N2CCC(C(=O)OC(C)C(=O)N(C)C3CCCCC3)CC2)cc1 (stereo not drawn) | 3 | -3 | i | -1 | -6 | -191 | -3 | -12
N#C/C(=C\c1ccc2c(c1)OCCO2)C(=O)NC1CCCCC1 | -3 | -4 | i | nt | 2 | -9 | -8 | 4
CC(C)CNC(=S)N(CCCO)Cc1cc2cc3c(cc2[nH]c1=O)OCCO3 | 4 | 5 | i | -9 | -10 | -4 | -4 | -8
CC(=O)NC(c1cccc(F)c1)c1nc(-c2cc(F)cc(Cl)c2)cs1 (stereo not drawn) | 11 | -3 | nt | 3 | nt | -22 | nt | nt
CCC(CC)C(=O)Nc1nnc(S(=O)(=O)N2CCCCCC2)s1 | 2 | -3 | i | -11 | -3 | 2 | -8 | 84 | eIF4H FP inh retest=-11;PABP FP inh retest=9
Cc1ccc(CSCC(=O)NCc2cccs2)cc1 | 2 | 2 | i | nt | 0 | 5 | 0 | -1
Cc1ccc(NCc2nnc(SCC#N)o2)c(C)c1 | 4 | 4 | i | -9 | -12 | nt | -16 | 7
C[C@@H]1CN(S(=O)(=O)C(C)(C)C)[C@H](CCO)/C1=C\c1ccccc1 | 0 | 1 | nt | -14 | nt | -9 | nt | nt
O=C1CCC/C1=C/Nc1ccc(Cl)cc1 | 1 | 2 | i | nt | 3 | 13 | -15 | 8
CN1CCN(NC(=O)CN2C(=O)/C(=C/c3ccccc3Cl)SC2=S)CC1 | 17 | 14 | i | -19 | -6 | nt | 1 | 5
CCOc1ccc2c(c1)C(C)=CC(C)(C)N2S(=O)(=O)c1ccc(F)cc1 | -2 | -15 | i | -5 | 59 | -2 | 8 | -1
CCc1cc2cc(C(=O)N3CCN(Cc4ccccc4)CC3)sc2s1 | 2 | -2 | i | nt | -6 | nt | 7 | -3
Cc1cccc(CSC2=NCCN2C(=O)c2ccco2)c1 | -1 | 1 | i | -20 | -11 | -7 | -2 | -7
O=C(NCc1ccco1)Nc1cccc(-c2ccccc2)c1 | 2 | -4 | nt | 5 | nt | 18 | nt | nt
CCc1nc2ccc(C(=O)Nc3cccc(OCC(=O)N(C)C)c3)cn2c1N(C)Cc1ccc(N(C)C)cc1 | 3 | 1 | nt | -18 | nt | 16 | nt | nt
CCOC(=O)C1(CCCc2ccccc2)CCN(CCCn2cccn2)CC1 | 0 | -1 | i | nt | nt | 5 | 4 | -1
Cc1cc(NC(=O)c2ccc(S(=O)(=O)N3CCCC3)cc2)nc2c1c(=O)oc1ccccc12 | -1 | -1 | i | -16 | nt | nt | 17 | -4
O=C(NCCc1ccc(F)cc1)c1ccc([N+](=O)[O-])cc1 | 4 | 5 | i | -10 | 0 | -25 | -9 | -4
O=C(N[C@@H]1C/C=C\C[C@H](CC(=O)N(CCO)Cc2ccccc2)C(=O)NC[C@@H](c2ccccc2)OC1=O)OCC1c2ccccc2-c2ccccc21 | -2 | -10 | nt | -20 | nt | -62 | nt | nt
CCOc1cc(/C=C2/C(=O)ON=C2C)ccc1OCc1ccccc1 | nt | nt | i | nt | 16 | -19 | 8.1* | ? | PABP FP inh retest=116*
COc1ccc(S(=O)(=O)N2CCN(Cc3ccccc3)CC2)cc1 | -5 | -8 | i | -9 | -8 | -77 | -13 | -9
CCN(CC)CCNCc1ccc(-c2ccc(Cl)cc2)o1 | 10 | -1 | i | -21 | 79* | nt | 15 | -3
COc1cc(NC(=O)CSc2nc3c(C)ccc(C)c3cc2C)c(C(=O)O)cc1OC | 5 | 4 | i | 0 | 22 | 21 | 9 | 10
O=C(NCc1ccccn1)c1ccc(NC(=O)c2ccco2)cc1 | 6 | 6 | i | -13 | 1 | nt | -9 | -2
O=C(CCc1ccccc1)Nc1ncn[nH]1 | -6 | -4 | i | -24 | -4 | nt | -6 | 3
CC(=O)c1c(C(C)=O)c(C)n(Cc2ccc(Cl)cc2)c1C | 3 | -8 | i | -2 | -8 | ? | -9 | 2
CC1=C(C(=O)OC2CCCCC2)C(c2ccc(C)o2)C2=C(CCCC2=O)N1 (stereo not drawn) | -4 | -9 | i | -21 | 7 | nt | -4 | 0
CC(=O)c1sc(-c2ccc(F)cc2F)nc1C | 1 | 1 | i | -18 | -9 | -7 | -11 | -5
CC1(C)Cc2nc3sc4c(OCc5ccccc5)ncnc4c3cc2CO1 | 15 | -2 | i | -16 | 51 | -101 | 3 | -4
Cc1cc(=O)cc(C)n1-c1ccc2c(c1)nc(C)n2-c1ccccc1 | -6 | 1 | i | -6 | -2 | nt | -2 | -10
CC(=O)C1=C(O)C(=O)N(CCc2c[nH]c3ccccc23)C1c1ccccc1 (stereo not drawn) | 4 | -2 | i | nt | -5 | 8 | 5 | 5
Cc1sc2nc(CN3CCCC3)nc(N3CCN(C(=O)c4ccco4)CC3)c2c1C | -4 | -1 | i | nt | -10 | 16 | 2 | 12
COc1ccc(CNc2ncnc3cc(OC)c(OC)cc23)cc1 | 6 | 5 | i | -8 | -15 | nt | -3 | -5
CCc1ccc2c(c1)cc(CN(Cc1ccco1)C(C)=O)c1nnnn12 | nt | nt | i | nt | 8 | -7 | 7 | 5
O=C1CC(=O)N(Cc2cccs2)C(=O)N1 | -114 | 12 | i | 4 | -7 | nt | ? | ?
Cc1cc(C)n(-c2cccc(CN3CCC(CO)(Cc4ccccc4)CC3)c2)n1 | -1 | 0 | i | nt | 12 | -5 | 5 | 1
CSc1nc(N)n2nc(-c3ccc(Cl)cc3)cc2n1 | -8 | -5 | i | -26 | 2 | -124 | -6 | 2
COc1cc(C(=O)NC2CC3CCCC(C2)N3C2CC2)cc(OC)c1OC (stereo not drawn) | -2 | -1 | i | -13 | nt | -62 | -1 | 2
COc1cccc(-c2nc(CS(=O)(=O)CC(=O)Nc3cc(F)ccc3F)c(C)o2)c1 | 4 | -4 | i | -10 | -3 | 12 | 2 | -17
CCCCC(=O)OCc1nc2ccccc2s1 | 0 | 4 | i | -15 | -6 | 8 | 5 | 0
CCOC(=O)c1cc[nH]c1CC(=O)NC | 3 | 7 | i | -10 | -5 | -6 | 13 | 14
CCOC(=O)Cc1[nH]nc2c1C(Cc1ccccc1)C(C#N)=C(N)O2 (stereo not drawn) | 6 | -2 | i | -13 | 14 | 5 | 9 | -4
Cc1csc(C(=O)O)c1NC(=O)c1c(Cl)cccc1Cl | 2 | 4 | i | -11 | -2 | 0 | 4 | 7
CC(C)C(=O)O/N=C(\N)c1ccc(Oc2ccc(Cl)cc2)c([N+](=O)[O-])c1 | 4 | -15 | i | nt | 35 | -29 | -5 | 2
Cc1ccc(COc2ccccc2-c2cc(C(=O)N/N=C/c3cccnc3)[nH]n2)cc1 | -4 | -15 | i | nt | 78* | -190 | -11 | -5

Structural class: those above containing a Cl atom
SMILES | MT1-MMP act inh | MT1-MMP act inh RFP | Rce1 inh | UUG fidelity | CSC inhib | Env fusion inh | PABP FP inh | eIF4H FP inh | others
O=C(CC1S/C(=N/N=C/C=C/c2ccccc2)NC1=O)Nc1ccc(Cl)c(Cl)c1 (stereo not drawn) | 5 | -1 | i | -7 | 8 | nt | -3 | -4
CC(=O)NC(c1cccc(F)c1)c1nc(-c2cc(F)cc(Cl)c2)cs1 (stereo not drawn) | 11 | -3 | nt | 3 | nt | -22 | nt | nt
O=C1CCC/C1=C/Nc1ccc(Cl)cc1 | 1 | 2 | i | nt | 3 | 13 | -15 | 8
CN1CCN(NC(=O)CN2C(=O)/C(=C/c3ccccc3Cl)SC2=S)CC1 | 17 | 14 | i | -19 | -6 | nt | 1 | 5
CCN(CC)CCNCc1ccc(-c2ccc(Cl)cc2)o1 | 10 | -1 | i | -21 | 79* | nt | 15 | -3
CC(=O)c1c(C(C)=O)c(C)n(Cc2ccc(Cl)cc2)c1C | 3 | -8 | i | -2 | -8 | ? | -9 | 2
CSc1nc(N)n2nc(-c3ccc(Cl)cc3)cc2n1 | -8 | -5 | i | -26 | 2 | -124 | -6 | 2
Cc1csc(C(=O)O)c1NC(=O)c1c(Cl)cccc1Cl | 2 | 4 | i | -11 | -2 | 0 | 4 | 7
CC(C)C(=O)O/N=C(\N)c1ccc(Oc2ccc(Cl)cc2)c([N+](=O)[O-])c1 | 4 | -15 | i | nt | 35 | -29 | -5 | 2

The results go on.
SMILES | MT1-MMP act inh | MT1-MMP act inh RFP | Rce1 inh | UUG fidelity | CSC inhib | Env fusion inh | PABP FP inh | eIF4H FP inh | others
COc1ccc(Cn2ccnc2)cc1Br | 4 | 5 | i | -11 | -12 | -125 | -7 | -18
CCOc1ccc(CN(C(=O)c2ccccn2)c2ccc(OC)c(Cl)c2)cc1 | -3 | -1 | i | -8 | 3 | -28 | 2 | 2
Cc1cccc2cc(/C=N/NC(=O)c3ccncc3)c(Cl)nc12 | -2 | -3 | i | -12 | -5 | 7 | 5 | 8
Cc1cc(F)c(F)c(C(=O)N2CCC(C)CC2)c1Cl | 0 | 7 | nt | nt | -6 | 4 | -3 | -6
Cc1nc(CN(C)C(=O)C2CCC(=O)N(CCc3cccc(F)c3)C2)cs1 (stereo not drawn) | -1 | 2 | i | 2 | -18 | 0 | -8 | -14
